Compound activity from PubChem.
VDR inhibitor: inhibitors of human vitamin D receptor; P11473; VDR-SRC2-3 peptide fluorescence polarization, 2 h; Potency, µM, for the others: max response, negative = inhibition, actives largely listed as inhibitors; actives 0.93% (n = 400,000); active = well fitted inhibition curve with a large enough effect; inconclusive = small, poorly fitted or top-dose-only effect, or another doubt; inactive = no such curve, though single readings can be large or run the other way; also: series mostly up to about 120 µM
Target sequence (P11473 whole entry, looked up): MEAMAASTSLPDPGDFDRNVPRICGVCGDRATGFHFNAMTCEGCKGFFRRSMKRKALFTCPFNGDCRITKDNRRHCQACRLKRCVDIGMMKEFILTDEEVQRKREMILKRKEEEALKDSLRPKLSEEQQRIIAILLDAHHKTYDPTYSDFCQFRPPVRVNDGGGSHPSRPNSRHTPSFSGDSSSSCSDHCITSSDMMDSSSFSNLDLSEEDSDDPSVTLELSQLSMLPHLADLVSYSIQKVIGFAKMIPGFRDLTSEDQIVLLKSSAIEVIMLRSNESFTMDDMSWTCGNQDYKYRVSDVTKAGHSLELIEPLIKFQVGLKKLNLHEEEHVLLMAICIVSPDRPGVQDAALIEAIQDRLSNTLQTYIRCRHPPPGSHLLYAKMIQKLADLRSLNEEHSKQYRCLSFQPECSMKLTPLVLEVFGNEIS
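Measured by FP: displacement of SRC2-3 coactivator peptide from VDR by library compounds, following a two-hour ambient incubation.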
The depositor's hits bear a star; ? = inconclusive; & = joins results of further samples; [ ] = another dose, or the depositor's remark. % is scaled to controls: 0 for no effect and ±100 for the full control effect; potency is read from the fitted curve at half-maximal effect.

SMILES	VDR inhibitor
COc1ccc(NC(=O)CN(C)C(=O)c2ccc(NS(=O)(=O)c3ccc(C)c([N+](=O)[O-])c3)cc2)cc1	2%
COc1ccc(NCc2nnc(SCC(=O)Nc3nc(-c4ccccc4)cs3)n2-c2ccccc2)cc1	-11%
Cc1cccc(N(C)C(=O)CCS(=O)(=O)c2cc3c(cc2Cl)NC(=O)CO3)c1	-23%
CCCC(=O)Nc1ccc(C(=O)Nc2nnc(COC)s2)cc1	0%
CC(C)C[C@H](N)c1nnc(SCC(=O)Nc2ccc(Br)cc2)o1	-12%
CCCCCCCCCCS(=O)(=O)N/N=C/c1ccc([N+](=O)[O-])cc1	19%
O=C(CCc1ccccc1)N1CCCC1	-16%
COc1ccc(-c2ccc(NS(=O)(=O)c3ccc(F)c(C(F)(F)F)c3)cc2)nn1	13%
CCN(CCC(=O)Nc1cc([N+](=O)[O-])ccc1OC)Cc1ccccc1	9%
Cc1nc2ccc(NC(=O)COc3ccccc3C)cc2s1	9%
COC(=O)C1=CN(Cc2ccc(C)cc2)C=C(C(=O)OC)C1c1cc(OC)c(OC)c(OC)c1	2%
COc1ccc(CCN/C=C2/CC(=O)NC2=O)cc1OC	-2%
O=C(CSc1nc(C2CC2)nc2ccccc12)N1c2ccccc2Sc2ccccc21	-9%
Cc1cc2ncn(C(=O)c3c(-c4c(Cl)cccc4Cl)noc3C)c2cc1C	3%
COc1cccc(NC(=O)c2ccc(N3C(=O)C4CCC(C)CC4C3=O)cc2)c1 (centres undefined)	7%
Cc1ccc(S(=O)(=O)N(C)CCN(C)S(=O)(=O)c2ccc(C)cc2)cc1	11%
O=C(O)c1cn(-c2ccc(F)cc2)c(=O)c2ccccc12	5%
CCOC(=O)c1[nH]c2cc(OC)c(OC)cc2c1NC(=O)C(C)N1CCN(Cc2ccccc2)CC1 (centres undefined)	8%
Cc1cc2n(n1)C(c1cc(C(C)(C)C)c(O)cc1O)Nc1ccccc1-2 (centres undefined)	5%
COc1ccc(NC(=O)CS(=O)CC(=O)Nc2ccc(NC(C)=O)cc2)cc1 (centres undefined)	-7%
CCC(C)Nc1nc2c(c(=O)n(C)c(=O)n2C)n1Cc1cccc(C)c1 (centres undefined)	14%
Cc1cc(OCC(=O)OCC(=O)NC2CCCCCC2)ccc1Cl	-15%
Cc1ccccc1CNS(=O)(=O)c1csc(C(N)=O)c1	10%&8%
O=C(NCC1CCCCC1)C1CCC(=O)N(CCc2cccc(F)c2)C1 (centres undefined)	8%
COc1ccccc1C(=O)Nc1nc2ccc(S(C)(=O)=O)cc2s1	-2%
COc1cc2cc(C#N)c(SCC(=O)OC(C)C)nc2cc1OC	-11%
Cc1cc(NC(=O)c2cccc(Oc3ccccc3)c2)n[nH]1	-7%
O=C(CN1C(=O)c2ccccc2C1=O)NC1CCCCC1	13%
Cc1ccc(C)c(NC(=O)Cc2csc(-c3ccccc3)n2)c1	-13%
COCCNC(=O)c1onc(CSc2ccccn2)c1C(=O)NCCOC	-13%
COc1ccc(-n2c(=O)[nH]cc(C(=O)N3CCc4ccccc43)c2=O)cc1	-5%
CC(C)Sc1nc2ccccc2n1CC(=O)NCc1ccc2c(c1)OCO2	-14%
CC(=O)N1CCC(=NNC(=O)CSc2cc(C)c(Br)cc2C)CC1	-4%
Cc1nn(-c2ccc(Cl)cc2)c(N)c1C(O)(CSc1nccn1C)C(F)(F)F (centres undefined)	-10%
Cc1nn(C)c2c1c(-c1ccccc1)cc(=O)n2C(C)C(=O)NCCc1ccc(Cl)cc1 (centres undefined)	2%
Cc1ccc(S(=O)(=O)N(C)c2ccc(C(=O)Nc3ccccn3)cc2)cc1	5%
CCOCCCn1c(=N)c(C(=O)NCc2ccccc2)cc2c(=O)n3ccccc3nc21	-1%
CCOC(=O)Cn1nc(C)n(-c2ccc(C)cc2)c1=O	0%
CCCCn1c(N)c(N(CC)C(=O)Cc2ccc(S(=O)(=O)N3CCOCC3)s2)c(=O)[nH]c1=O	-7%
Cc1cc(F)ccc1S(=O)(=O)N1CCCOC1CNC(=O)C(=O)NC1CC1 (centres undefined)	1%
COc1cc(NC(=O)CSc2nc3nc(C)c(Cc4ccc(C)cc4)c(C)n3n2)cc(OC)c1	8%
CC(=O)Nc1ccc(NC(=O)C(NC(=O)C2CCC(C)CC2)C(C)C)cc1 (centres undefined)	4%
O=C(N/N=C/c1ccccc1C(=O)O)c1ccc(COc2cccc3cccnc23)cc1	-6%
Cc1cccc2cc(CN(CCN3CCCC3)C(=O)NC3CCCCC3)c(=O)[nH]c12	2%
COc1ccc(-c2cccc(NS(=O)(=O)c3ccc(C)s3)c2)nn1	10%
O=C(O)c1c[nH]c2cc(C(F)(F)F)ccc2c1=O	6%
COc1ccc(C(=O)NC2CCN(CC(=O)Nc3c(C)cccc3C)CC2)cc1OC	-3%
O=c1c2ccccc2nc(SCc2cccc(F)c2)n1Cc1ccco1	17%
CC(=O)c1cccc(N2C(=NC(=O)C3CC3)SC3CS(=O)(=O)CC32)c1 (centres undefined)	-2%
COc1ccc2cc(CCNC(=O)c3ccco3)c(=O)[nH]c2c1	-25%

Four compounds picked at random from those above:
SMILES	VDR inhibitor
COc1cccc(NC(=O)c2ccc(N3C(=O)C4CCC(C)CC4C3=O)cc2)c1 (centres undefined)	7%
COc1cc2cc(C#N)c(SCC(=O)OC(C)C)nc2cc1OC	-11%
COc1ccc(-c2cccc(NS(=O)(=O)c3ccc(C)s3)c2)nn1	10%
COc1ccc(-n2c(=O)[nH]cc(C(=O)N3CCc4ccccc43)c2=O)cc1	-5%

Some of the entries so far, with the structure last:
VDR inhibitor	structure
-6%	O=C(N/N=C/c1ccccc1C(=O)O)c1ccc(COc2cccc3cccnc23)cc1
2%	Cc1cccc2cc(CN(CCN3CCCC3)C(=O)NC3CCCCC3)c(=O)[nH]c12
10%	COc1ccc(-c2cccc(NS(=O)(=O)c3ccc(C)s3)c2)nn1
6%	O=C(O)c1c[nH]c2cc(C(F)(F)F)ccc2c1=O
-3%	COc1ccc(C(=O)NC2CCN(CC(=O)Nc3c(C)cccc3C)CC2)cc1OC
17%	O=c1c2ccccc2nc(SCc2cccc(F)c2)n1Cc1ccco1
-2%	CC(=O)c1cccc(N2C(=NC(=O)C3CC3)SC3CS(=O)(=O)CC32)c1 (centres undefined)

Next part:
SMILES	VDR inhibitor
O=S(=O)(/N=C(/Nc1cc(N2CCOCC2)ncn1)c1ccccc1)c1ccccc1	5%
Cc1ccc(NCC2(N=Cc3ccccc3)OC(CO)C(O)C2O)cc1 (centres undefined)	-4%
COc1ccccc1N1CCN(C(=O)CCC(=O)Nc2nnc(CC(C)C)s2)CC1	1%
CCOC(=O)C1=C(C)Nc2ccccc2N=C1NC(=O)/C=C/c1ccc(OC)cc1OC	14%
CCOC(=O)C1=C(CC)Nc2ccccc2N=C1NC(=O)c1cc(C)on1	-16%
COc1cc(-c2nccc3cc4c(cc23)OCO4)cc(OC)c1OC	-10%
NC1=NC[C@H](Cc2ccc(O)cc2)N1CCC12CC3CC(CC(C3)C1)C2	-1%
Cc1nc(NC(=O)COC(=O)c2cccs2)c(Cl)cc1Cl	-22%
CC(=O)N1NC(=Nc2ccccc2)SC1(C)C	-5%
N#C/C(=C\c1ccc(C#N)cc1)C(=O)c1ccccc1	79µM*
CN(CC(=O)N1CCN(c2ccccc2)CC1)S(=O)(=O)c1cccs1	2%
Cc1ccc(C)c(S(=O)(=O)c2nnn3c2nc(NC2CCCC2)c2sccc23)c1	-1%
Cc1noc(NS(=O)(=O)c2ccc(NC(=O)C(C)C)cc2)c1C	0%
CCOC(=O)c1ccc(NC(=S)Nc2ccc(C)cc2)cc1	-12%
CC(C)c1ccc(NC(=O)CSc2nc(=O)n(CCN3CCOCC3)c3c2CCC3)cc1	-5%
COc1ccccc1C(=O)NC(=O)CSc1nnnn1C	9%
COc1ccc(C(=O)Nc2cccc(S(=O)(=O)NC3=NCCCCC3)c2)cc1	-4%
CC(O)C(NS(=O)(=O)c1ccc(Cl)cc1)C(=O)OCc1cc([N+](=O)[O-])cc2c1OCOC2 (centres undefined)	33%[activator]
COc1ccc(S(=O)(=O)N(C)CC(=O)NCCN2CCOCC2)cc1Cl	-2%
CN(C)c1ccc(NC(=O)c2sc(SCC(=O)Nc3nccs3)nc2N)cc1	-2%
O=C(/C=C/c1ccc(O)c(O)c1)c1ccc(O[C@@H]2O[C@H](CO)[C@@H](O)[C@H](O)[C@H]2O)c(O)c1O	?
C=CCN1C(=O)/C(=C\c2cccc(OC(=O)c3ccco3)c2)SC1=S	9%
O=C(N/N=C1\CCSC1)c1cc(Cl)ccc1O	11%
Cc1ccc(NC(=O)C(Cc2c[nH]c3ccccc23)NC(=O)OCC(C)C)cc1 (centres undefined)	-15%
COc1cccc(-c2ncc3ccccc3c2CO)c1	-22%
COc1ccccc1/C=C/c1nc(C#N)c(NCCc2ccccc2)o1	4%
Cc1ccc(S(=O)(=O)N2CCC(=O)CC2)cc1	11%
CC(NC(=O)Nc1ccc2c(c1)OCO2)C1CCCO1 (centres undefined)	-1%
CS(=O)(=O)Nc1ccc(C2=NN(C(=O)c3cccc(F)c3)C(c3cccs3)C2)cc1 (centres undefined)	-9%
O=C(COc1ccc2oc3c(c2c1)CCCC3)Nc1ccc(Br)cc1	-9%
Cc1ncc(CSc2nc3ccccc3[nH]2)c(N)n1	9%
Cc1ccc(NC(=O)C2CCCN(c3nc4ccccc4s3)C2)c(C)c1 (centres undefined)	8%
O=C1C2C(c3ccccc3)CC=CC2C(c2cccc(Br)c2)N1Cc1ccccc1 (centres undefined)	-11%
COc1ccccc1-c1cc(C(=O)Nc2cc(OC)c(OC)c(OC)c2)no1	-8%
O=C(NCCN1C(=O)S/C(=C/c2cccnc2)C1=O)c1ccc(S(=O)(=O)N2CCCC2)cc1	-17%
COc1ccccc1CNc1nc(-c2ccco2)nn1C(=O)c1cc(OC)c(OC)c(OC)c1	1%
CCCn1nc(NC(=O)c2cccs2)c2cc3cc(C)ccc3nc21	29%
CCCCNC(=O)C1CCC(CNS(=O)(=O)c2c(C)cc(C)cc2C)CC1 (centres undefined)	-9%
CCN1CCN(CCCCOc2ccccc2F)CC1	4%
Cc1ccc(-c2nnc(CSc3nnc(COc4ccccc4)n3-c3ccccc3)o2)cc1	-20%
C[C@H]1CN=C(N(C)C)N1CCc1ccccc1	-7%
COc1ccc(NC(=O)[C@@H]2CCCN2S(=O)(=O)c2cccc3cccnc23)cc1	-14%
CC(CNC(=O)C1CCN(C(=O)N2CCOc3ccc(Cl)cc32)CC1)c1ccccc1 (centres undefined)	6%
O=C(COC(=O)Cc1cn2ccsc2n1)Nc1nc2ccccc2s1	-14%
Cc1cn(-c2cc(C(=O)Nc3ccc(C)c(NC(=O)C(=O)c4c[nH]c5ccccc45)c3)cc(C(F)(F)F)c2)cn1	7%
CCCc1cc(C(=O)NCCc2ccc(OC)c(OC)c2)no1	-9%
COc1ccc(OCC(=O)Nc2ccc3c(c2)nc(CCNC(C)=O)n3C)cc1	-5%
CCCS(=O)(=O)c1ncc(Cl)c(C(=O)Nc2scc(-c3ccccc3)c2C(=O)OCC)n1	?
COc1ccc(NC(=O)N2CCCC3(CCNCC3)C2)cc1	-20%
COc1ccc(-n2c(=S)[nH]c3cc(C(=O)O)ccc3c2=O)cc1	-5%

(continued)
SMILES	VDR inhibitor
CC(C)=C[C@H]1C[C@H](C)[C@H]2CC[C@H](C)c3c(O[C@@H]4OC[C@@H](O)[C@H](O)C4O)c(O)c(C)c1c32 (some centres undefined)	-8%
CN(C)C(CNC(=O)CSc1nnc(-c2ccco2)o1)c1ccccc1 (centres undefined)	0%
CCOc1ccc(C(=O)C(C)OC(=O)c2cnc(C)cn2)cc1 (centres undefined)	8%
O=C(c1cc2nc(-c3ccco3)cc(C(F)(F)F)n2n1)N1CCCc2ccccc21	3%
CC1CN(CC(=O)NCc2ccccc2)CC(C)O1 (centres undefined)	-6%
O=C(Oc1cccc(NC(=O)c2ccco2)c1)c1cccc(S(=O)(=O)N2CCCCC2)c1	8%
CSc1ncccc1C(=O)OCC(=O)Nc1cc(C(F)(F)F)ccc1N1CCOCC1	-9%
CC(C)OC(=O)c1cc2c(ccn2C)n1CC(=O)N(Cc1ccccc1)c1ccc(F)cc1	-11%
O=[N+]([O-])c1ccc(/C=N/Nc2ncccc2[N+](=O)[O-])s1	-6%
CCc1ccc(NC(=O)CN2C(=O)C(c3ccc(Cl)cc3)=NC23CCCCC3)cc1	-2%
CCOC(=O)Cc1csc(NC(=O)c2ccc3ncsc3c2)n1	-2%
COc1cccc(CNCCO)c1OCc1ccccc1	8%
CCCCc1cc(=O)oc2c(CN3CCN(C)CC3)c(O)ccc12	-5%
CN1CCC23c4ccccc4NC1C21CCN(C)C3Nc2ccccc21	14%
CN(CCCN1CCCCC1)C(=O)c1cc(COc2ccc(F)cc2F)on1	-2%
COc1cc(/C=N/NC(=O)c2ccncc2)ccc1OC(=O)c1cc(OC)c(OC)c(OC)c1	13%
Cc1ccc(S(=O)(=O)C(C#N)c2nc3ccccc3nc2N2CCCC2)cc1 (centres undefined)	?
CCOCCCN(C(=O)Nc1ccc(Cl)cc1)C1CCN(C(C)=O)CC1	5%
O=C(NCc1ccccn1)C(=O)NCC1OCCN1S(=O)(=O)c1ccc(Cl)cc1 (centres undefined)	0%
COc1ccc(C(C)=O)cc1CSc1nc(C)cc(C)n1	0%

The list is partial. The share of hits here may be higher or lower than overall.
